NOMO-1 viab: STK33 inhibitor candidate reducing NOMO-1 cell viability; actives 7.5% (n = 37,000); AID 2330; inhibition, % (concentration not given with the values); NOMO-1 AML viability, CellTiter-Glo luminescence, 72 h;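 active means most replicates above 80%; inconclusive means exactly half above 80%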;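 further: wells of about 30 µL received 25 nL stock; 0% = median of vehicle wells and 100% = reference inhibitor level; the first replicate is given; inactives centre near 10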
An asterisk follows results filed as active; u = inconclusive.

SMILES	NOMO-1 viab
C[C@H]1CN([C@@H](C)CO)C(=O)c2cccc(NS(=O)(=O)c3ccc(Cl)cc3)c2O[C@@H]1CN(C)Cc1ccc(-c2ccccc2)cc1	33.0
C/C=C/c1ccc(OCCCN2C(=O)NC(C)(C)C2=O)c(OC)c1	-20.4
COc1ccc(NC(=O)Nc2cccc3c2O[C@H](CN(C)C(=O)Nc2ccc(OC)cc2)[C@H](C)CN([C@H](C)CO)C3=O)cc1	-4.0
CCOc1ccccc1CNc1nc2nc(C)c(Cl)c(C)n2n1	-10.0
C[C@@H]1CN([C@@H](C)CO)C(=O)Cc2cc(NC(=O)Nc3ccc4c(c3)OCO4)ccc2O[C@@H]1CN(C)S(=O)(=O)c1cccs1	31.8
Cc1noc(C)c1S(=O)(=O)Nc1ccc2c(c1)C(=O)N([C@H](C)CO)C[C@H](C)[C@@H](CN(C)S(=O)(=O)c1cccs1)OCCCC[C@@H](C)O2	10.3
O=C(c1ccccc1)c1cc(Cl)ccc1NS(=O)(=O)c1ccccc1[N+](=O)[O-]	-6.0
O=C(CSc1nc2ccccc2o1)Nc1ccc(Br)cc1Cl	-5.8
Cc1ccc(S(=O)(=O)N(C)C[C@H]2Oc3ccc(NC(=O)C4CC4)cc3C(=O)N([C@@H](C)CO)C[C@H]2C)cc1	8.3
Cc1noc(C)c1S(=O)(=O)N(C)C[C@H]1Oc2c(NC(=O)C3CCCCC3)cccc2C(=O)N([C@H](C)CO)C[C@H]1C	9.2
COc1ccc(NC(=O)Nc2cccc3c2O[C@H](CN(C)C(=O)Nc2ccccc2)[C@H](C)CN([C@H](C)CO)C3=O)cc1	-13.8
COc1ccc(CCNC(=O)C(Sc2ccc(Cl)cc2)c2ccccc2)cc1OC (centres undefined)	68.5
C[C@@H]1CN([C@@H](C)CO)C(=O)c2cc(NC(=O)Nc3ccccc3)ccc2O[C@@H]1CN(C)Cc1ccc(-c2ccccc2)cc1	113.8*
COc1ccc(OC)c(NC(=O)COc2cc(C)cc(C)c2C)c1	22.7
Cc1ccc(-c2nnc3c4ccccc4c(C)nn23)cc1S(=O)(=O)NCC1CCCO1 (centres undefined)	36.4
Cc1noc(C)c1S(=O)(=O)N(C)C[C@@H]1Oc2ccc(NC(=O)CCC(F)(F)F)cc2CC(=O)N([C@@H](C)CO)C[C@@H]1C	4.2
COc1ccc([N+](=O)[O-])cc1N(CC(=O)Nc1ccccc1Br)S(C)(=O)=O	0.6
N#Cc1c(-c2ccco2)cc(-c2cccs2)nc1OCc1ccc(F)cc1	23.1
Cc1noc(C)c1S(=O)(=O)N(C)C[C@H]1OCCCC[C@@H](C)Oc2ccc(NS(=O)(=O)c3cn(C)cn3)cc2C(=O)N([C@H](C)CO)C[C@@H]1C	-5.8
O=C(CN1CCN(S(=O)(=O)c2ccc3ccccc3c2)CC1)Nc1cc(Cl)ccc1Cl	6.6
Cc1cc(C)cc(OCC(=O)Nc2cc(-c3nc4cc(Cl)ccc4o3)ccc2C)c1	41.2
CC(C)/C(=N/O)c1ccccc1	5.6
COc1ccc(CN(C)C[C@@H]2Oc3ccc(NS(C)(=O)=O)cc3C(=O)N([C@@H](C)CO)C[C@@H]2C)cc1	4.2
COc1ccc(S(=O)(=O)Nc2ccc3c(c2)C(=O)N([C@H](C)CO)C[C@@H](C)[C@H](CN(C)C(=O)Nc2ccc(C(F)(F)F)cc2)O3)cc1	30.3
C[C@H]1CN([C@@H](C)CO)C(=O)c2cc(NC(=O)Cc3ccccc3)ccc2O[C@@H]1CN(C)C(=O)Nc1ccc(C(F)(F)F)cc1	22.7
SMILES	NOMO-1 viab
COc1cccc2cc(C(=O)C3C(=O)C(=O)N(CCN4CCOCC4)C3c3cccc(Cl)c3)oc12 (centres undefined)	24.6
C[C@H]1CN([C@@H](C)CO)C(=O)c2cccc(N(C)C)c2O[C@@H]1CN(C)Cc1ccc(Cl)c(Cl)c1	44.7
COc1ccc(C2OCC3C(c4cc(OC)c5c(c4)OCO5)OCC23)cc1OC (centres undefined)	4.8
C[C@@H]1CN([C@H](C)CO)C(=O)c2cccc(NC(=O)c3ccncc3)c2O[C@H]1CN(C)Cc1ccc(C(=O)Nc2ccccc2N)cc1	35.4
C[C@H](CO)N1C[C@H](C)[C@@H](CN(C)Cc2ccc(C(=O)Nc3ccccc3N)cc2)Oc2c(NC(=O)Nc3ccccc3)cccc2C1=O	127.4*
C[C@H](CO)N1C[C@H](C)[C@H](CN(C)Cc2ccccc2)Oc2c(NC(=O)Nc3ccccc3)cccc2C1=O	12.0
C[C@H]1CN([C@@H](C)CO)C(=O)c2cc(NS(=O)(=O)c3ccccc3)ccc2O[C@H]1CN(C)Cc1ccc(C(=O)Nc2ccccc2N)cc1	u
COCCNCCn1cnc2c1c(=O)[nH]c(=O)n2C	2.7
CN(CC(=O)Nc1cccc2ccccc12)S(=O)(=O)c1ccc(F)cc1	-13.5
Cc1ccc(S(=O)(=O)Nc2nc(C)c(NC(=O)Nc3ccc(Cl)cc3Cl)s2)cc1	-2.8
O=S(=O)(Cc1ccco1)Cc1nc(-c2ccc(-c3ccccc3)cc2)cs1	-15.3
CC1(C)CCc2cc(C3SCCS3)ccc2O1	33.9
C[C@H]1CN([C@@H](C)CO)C(=O)c2cc(NC(=O)Nc3ccccc3)ccc2O[C@@H]1CN(C)Cc1ccc2c(c1)OCO2	19.5
Cc1ccc(C)c(NC(=O)c2ccc(OCC(=O)Nc3cc(C(F)(F)F)ccc3Cl)cc2)c1	u
C[C@H]1CN([C@@H](C)CO)C(=O)c2cc(NC(=O)NC3CCCCC3)ccc2O[C@H]1CN(C)Cc1ccc(C(F)(F)F)cc1	3.6
C[C@H]1CN([C@@H](C)CO)C(=O)c2cc(NS(=O)(=O)c3ccc(Cl)cc3)ccc2O[C@@H]1CN(C)Cc1ccc(Cl)c(Cl)c1	99.9*
COc1ccc(S(=O)(=O)N(C)C[C@H]2Oc3ccc(NS(=O)(=O)c4c(C)noc4C)cc3C(=O)N([C@@H](C)CO)C[C@@H]2C)cc1	9.7
C[C@@H]1CN([C@@H](C)CO)C(=O)c2cc(NC(=O)Nc3cccc4ccccc34)ccc2O[C@@H]1CN(C)C(=O)NC1CCCCC1	14.1
C[C@H](CO)N1C[C@H](C)[C@@H](CN(C)C(=O)Nc2ccc3c(c2)OCO3)Oc2ccc(NC(=O)CCCN(C)C)cc2C1=O	14.8
Cc1cc(C)c(OCC(=O)Nc2ncc(I)cc2C)c(Cl)c1	4.1
CCOc1ccc2c(c1)-c1c(ssc1=S)C(C)(C)N2C	86.3*
C[C@H](CO)N1C[C@H](C)[C@@H](CN(C)Cc2ccncc2)Oc2c(NS(=O)(=O)c3cccs3)cccc2C1=O	30.3
C[C@@H]1CCCCO[C@@H](CN(C)Cc2ccc(C(F)(F)F)cc2)[C@@H](C)CN([C@H](C)CO)C(=O)c2cc(N(C)C)ccc2O1	63.3
C[C@H]1CN([C@@H](C)CO)C(=O)Cc2cc(NC(=O)Nc3ccccc3)ccc2O[C@H]1CN(C)C(=O)Nc1ccc(C(F)(F)F)cc1	38.1
Cc1cc(NC(=O)CN(c2cccc(F)c2)S(C)(=O)=O)ccc1Br	4.4
SMILES	NOMO-1 viab
C[C@@H]1CCCCO[C@@H](CN(C)S(=O)(=O)c2ccc(Cl)cc2)[C@@H](C)CN([C@H](C)CO)C(=O)c2cc(NC(=O)Nc3cccc4ccccc34)ccc2O1	38.3
C[C@H](CO)N1C[C@H](C)[C@H](CN(C)Cc2ccc(C(=O)O)cc2)Oc2ccc(NS(=O)(=O)c3cccs3)cc2C1=O	24.7
C[C@H](CO)N1C[C@H](C)[C@H](CN(C)Cc2ccncc2)Oc2ccc(NC(=O)Nc3cccc4ccccc34)cc2CC1=O	124.7*
CC1(C)Cc2nc3sc4c(SCC(=O)Nc5ccc(Cl)cc5)ncnc4c3cc2CO1	-15.6
C[C@@H]1CN([C@H](C)CO)C(=O)c2cccc(NC(=O)Nc3ccc4c(c3)OCO4)c2O[C@H]1CN(C)CC1CC1	46.8
COc1ccc(CN(C)C[C@H]2Oc3c(NC(=O)Nc4ccc5c(c4)OCO5)cccc3C(=O)N([C@@H](C)CO)C[C@@H]2C)cc1	43.5
C[C@@H]1CN([C@@H](C)CO)C(=O)c2cccc(NC(=O)C3CCCCC3)c2O[C@H]1CN(C)C(=O)Nc1cccc2ccccc12	11.3
CS(=O)(=O)N(CC(=O)Nc1ccccc1C(F)(F)F)c1ccc(Cl)c(C(F)(F)F)c1	4.2
C[C@H]1CN([C@@H](C)CO)C(=O)c2cccc(NS(=O)(=O)c3cccs3)c2O[C@H]1CN(C)S(=O)(=O)c1cccs1	23.6
COc1ccc(NC(=O)Nc2ccc3c(c2)C(=O)N([C@@H](C)CO)C[C@H](C)[C@@H](CN(C)S(=O)(=O)c2ccc(OC)cc2)O3)cc1	28.9
Cc1c(N2CCCC2)cc2c(c1N)C(C)(C)CC2(C)C	50.8
COC(=O)c1cn(CC(=O)Nc2ccccc2C(F)(F)F)c2ccccc12	14.9
COc1ccc(NC(=O)Nc2ccc3c(c2)C(=O)N([C@@H](C)CO)C[C@@H](C)[C@H](CN(C)C)O3)cc1	16.7
COc1ccc(S(=O)(=O)Nc2ccc3c(c2)C(=O)N([C@@H](C)CO)C[C@@H](C)[C@@H](CN(C)C(=O)Nc2ccccc2)O3)cc1	-2.5
COc1cc(-c2nnn(CC(=O)O)n2)cc(OC)c1OC	-11.8
COc1cccc(NC(=O)CSc2nnc(-c3ccccc3O)n2-c2ccccc2)c1	16.4
C[C@@H]1CN([C@H](C)CO)C(=O)Cc2cc(NC(=O)NC3CCCCC3)ccc2O[C@@H]1CN(C)Cc1ccncc1	10.1
Cc1ccc(S(=O)(=O)Nc2ccc3c(c2)C(=O)N([C@H](C)CO)C[C@H](C)[C@@H](CN(C)C(=O)CCC(F)(F)F)OCCCC[C@@H](C)O3)cc1	-12.0
C[C@@H]1CN([C@@H](C)CO)C(=O)c2cccc(NS(=O)(=O)c3ccc(Cl)cc3)c2O[C@@H]1CN(C)C(=O)NC1CCCCC1	53.1
C[C@@H]1CN([C@H](C)CO)C(=O)Cc2cc(NC(=O)Cn3cnnn3)ccc2O[C@H]1CN(C)Cc1ccc(Oc2ccccc2)cc1	16.5
C[C@H](CO)N1C[C@H](C)[C@H](CN(C)CC2CCCCC2)Oc2ccc(NC(=O)Nc3ccc4c(c3)OCO4)cc2C1=O	0.0
C[C@@H]1CN([C@H](C)CO)C(=O)c2cccc(NC(=O)Nc3ccc4c(c3)OCO4)c2O[C@H]1CN(C)C(=O)NC1CCCCC1	-1.9
C[C@@H]1CN([C@H](C)CO)C(=O)Cc2cc(NC(=O)Nc3ccccc3)ccc2O[C@@H]1CN(C)S(=O)(=O)c1cccs1	51.6
COc1cc2c(cc1NC(=O)CCCN1C(=O)CCC1=O)oc1ccccc12	-4.2
Cc1oc(-c2ccc3c(c2)OCCO3)cc1C(=O)NCC(=O)O	1.9

Reformatted bar-delimited: 11 of the compounds above.
SMILES | NOMO-1 viab
COc1cc(-c2nnn(CC(=O)O)n2)cc(OC)c1OC | -11.8
COc1cccc(NC(=O)CSc2nnc(-c3ccccc3O)n2-c2ccccc2)c1 | 16.4
C[C@@H]1CN([C@H](C)CO)C(=O)Cc2cc(NC(=O)NC3CCCCC3)ccc2O[C@@H]1CN(C)Cc1ccncc1 | 10.1
Cc1ccc(S(=O)(=O)Nc2ccc3c(c2)C(=O)N([C@H](C)CO)C[C@H](C)[C@@H](CN(C)C(=O)CCC(F)(F)F)OCCCC[C@@H](C)O3)cc1 | -12.0
C[C@@H]1CN([C@@H](C)CO)C(=O)c2cccc(NS(=O)(=O)c3ccc(Cl)cc3)c2O[C@@H]1CN(C)C(=O)NC1CCCCC1 | 53.1
C[C@@H]1CN([C@H](C)CO)C(=O)Cc2cc(NC(=O)Cn3cnnn3)ccc2O[C@H]1CN(C)Cc1ccc(Oc2ccccc2)cc1 | 16.5
C[C@H](CO)N1C[C@H](C)[C@H](CN(C)CC2CCCCC2)Oc2ccc(NC(=O)Nc3ccc4c(c3)OCO4)cc2C1=O | 0.0
C[C@@H]1CN([C@H](C)CO)C(=O)c2cccc(NC(=O)Nc3ccc4c(c3)OCO4)c2O[C@H]1CN(C)C(=O)NC1CCCCC1 | -1.9
C[C@@H]1CN([C@H](C)CO)C(=O)Cc2cc(NC(=O)Nc3ccccc3)ccc2O[C@@H]1CN(C)S(=O)(=O)c1cccs1 | 51.6
COc1cc2c(cc1NC(=O)CCCN1C(=O)CCC1=O)oc1ccccc12 | -4.2
Cc1oc(-c2ccc3c(c2)OCCO3)cc1C(=O)NCC(=O)O | 1.9

(further entries)
SMILES	NOMO-1 viab
C[C@H]1CN([C@@H](C)CO)C(=O)c2cccc(NS(=O)(=O)c3cccs3)c2O[C@H]1CN(C)Cc1ccc(C(F)(F)F)cc1	22.7
C=C1C(=O)O[C@H]2[C@H]1[C@@H](OC(=O)/C(C)=C/C)C(OC(C)=O)/C(C(=O)OC)=C\CC[C@@]1(C)O[C@H]21 (some centres undefined)	119.0*
Cc1noc(C)c1NC(=O)Nc1ccc2c(c1)C(=O)N([C@H](C)CO)C[C@@H](C)[C@@H](CN(C)Cc1ccccc1)O2	-1.0
C[C@@H]1CN([C@@H](C)CO)C(=O)c2cc(N(C)C)ccc2O[C@H]1CN(C)Cc1ccc(C(=O)O)cc1	-6.5
C[C@H](CO)N1C[C@H](C)[C@H](CN(C)C(=O)Nc2ccccc2)Oc2c(NC(=O)Nc3ccccc3)cccc2C1=O	30.0
CCn1c(SCC(=O)Nc2cccc(OC)c2)nnc1-c1cccc(C)c1	-5.6
Cc1noc(C)c1S(=O)(=O)Nc1ccc2c(c1)C(=O)N([C@H](C)CO)C[C@H](C)[C@H](CN(C)Cc1ccc(C(=O)O)cc1)OCCCC[C@@H](C)O2	3.3
C[C@H](CO)N1C[C@H](C)[C@H](CN(C)Cc2ccccc2)Oc2ccc(NC(=O)Cc3cn(C)c4ccccc34)cc2CC1=O	-1.4
C[C@H](CO)N1C[C@H](C)[C@H](CN(C)S(=O)(=O)c2cccs2)Oc2c(NC(=O)C3CC3)cccc2C1=O	-4.0
C[C@H](CO)N1C[C@H](C)[C@@H](CN(C)S(=O)(=O)c2cccs2)Oc2c(NC(=O)C3CCOCC3)cccc2C1=O	5.9
N#Cc1ccccc1NC(=O)CSc1ccccn1	27.5
C[C@@H]1CCCCO[C@H](CN(C)C(=O)CCCN(C)C)[C@@H](C)CN([C@H](C)CO)C(=O)c2cc(NC(=O)NC3CCCCC3)ccc2O1	-1.2

The list is partial (hit frequency here may not be typical).
